TDP1 cell noCPT: qHTS for Inhibitors of human tyrosyl-DNA phosphodiesterase 1 (TDP1): qHTS in cells in absence of CPT; DT40 Tdp1-/- hTDP1 cells, no CPT, ATP luminescence, 48 h; Potency, µM (top dose mostly 46.2 µM), inactives show top-dose activity change, negative = growth inhibition, actives largely listed as inhibitors; 420,000 tested, 15% active; AID 686978, 2013; note: nearly all actives have a fitted effect of over 55% in size
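DT40 Tdp1-/-;hTDP1 cells, no CPT (DMSO vehicle only), 400 cells/well; compounds pin-transferred; ≥48 hr, 37 °C; CellTiter-Glo 30 min RT dark, luminescence read.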
TDP1 block: blocks human tyrosyl-DNA phosphodiesterase 1; Q9NUW8; recombinant TDP1, AlphaScreen DNA substrate cleavage; Potency, µM (top dose mostly 130 µM), for the others: at the top dose activity change, negative = inhibition, usual class: inhibitors; 350,000 tested, 0.28% active; note: nearly all actives have a fitted effect of over 40% in size
Target sequence (Q9NUW8 whole entry, looked up): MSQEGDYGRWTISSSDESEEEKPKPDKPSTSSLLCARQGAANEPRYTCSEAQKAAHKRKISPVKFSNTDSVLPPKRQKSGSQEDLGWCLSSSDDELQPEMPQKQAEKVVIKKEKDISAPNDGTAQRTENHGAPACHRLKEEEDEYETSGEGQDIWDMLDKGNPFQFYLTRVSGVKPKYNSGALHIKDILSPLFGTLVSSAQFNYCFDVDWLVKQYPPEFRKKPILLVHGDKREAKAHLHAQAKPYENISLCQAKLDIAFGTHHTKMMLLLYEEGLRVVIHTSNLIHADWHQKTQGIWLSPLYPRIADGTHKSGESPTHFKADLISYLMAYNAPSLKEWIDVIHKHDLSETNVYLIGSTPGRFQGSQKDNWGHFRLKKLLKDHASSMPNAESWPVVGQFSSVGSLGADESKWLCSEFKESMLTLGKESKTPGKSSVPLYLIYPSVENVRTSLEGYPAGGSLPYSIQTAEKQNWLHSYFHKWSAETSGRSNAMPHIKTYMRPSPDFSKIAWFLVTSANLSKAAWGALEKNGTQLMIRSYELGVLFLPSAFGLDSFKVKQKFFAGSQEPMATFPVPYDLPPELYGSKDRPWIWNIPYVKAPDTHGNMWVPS
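Here, a 5' biotin and 3' phosphotyrosine-FITC DNA oligonucleotide reports Tdp1 activity: intact substrate bridges AlphaScreen beads, while cleavage leaves a 3' phosphate and drops signal. All incubations at room temperature.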
* hit, by the source's call; ? = inconclusive; · = not tested or not shown; & = joins results of further samples; [ ] = another dose, or the depositor's remark. Calls come from the whole dose curve; as a rule, active = well fitted curve in the direction sought with a large enough effect; inconclusive = small, poorly fitted or top-dose-only effect, or another doubt; inactive = no such curve, though single readings can be large; an effect the other way counts as inactive or inconclusive. % is set by controls: 0 for no effect and ±100 for the full control effect; potency is the fitted concentration of half-maximal effect. A portion of the library; most or all hits stand in other tables.

SMILES | TDP1 cell noCPT | TDP1 block
COc1ccc(N2CCN(C(=O)Nc3ccccc3C)CC2)cc1 | 4% | -5%
CN(C)c1ccc(CN(CC2CCCO2)C(=O)c2cccs2)cc1 (stereo not given) | -23% | 8%
CCOC(=O)Cc1csc(NC(=S)NC(=O)c2cc(OC)cc(OC)c2)n1 | ? | 4%
O=C(NCC1CCCCC1)c1ccc(Cl)c(S(=O)(=O)N2CCOCC2)c1 | ? | -2%
COc1cc(/C=N/N2C(C)CCCC2C)cc(Br)c1O (stereo not given) | -4% | 0%
CCOc1ccc(-c2oc3ccc(C)cc3c(=O)c2O)cc1 | ? | 1%
COC(=O)c1cn(C(=O)c2ccccc2)c2ccccc12 | -9% | 5%
O=C(NC(=S)Nc1ccc(S(=O)(=O)Nc2ncccn2)cc1)c1cccc(Br)c1 | -16% | 5%
COc1cc(/C=C/CN2CCC(Oc3ccc(C(=O)N4CCCC4)cc3)CC2)ccc1O | -9% | ·
NS(=O)(=O)c1ccc(CCNC(=O)Cn2c(=O)c3cccn3c3cccnc32)cc1 | 21% | -3%
O=C(CCCc1cccs1)Nc1nccs1 | 6% | 2%
CSc1nc(N2CCOCC2)c2sccc2n1 | ? | -3%
COc1cc(Cl)c(C)cc1NC(=O)COC(=O)C1=NN(c2ccccc2)C(=O)CC1 | 7% | 2%
COc1ccc(NC(=O)C(c2ccccc2)N2Cc3ccccc3C2=O)cc1 (stereo not given) | -8% | 6%
Cc1ccc(Cn2nnc3c(=O)[nH]c(C4CCN(C(=O)Cc5ccccc5F)CC4)nc32)cc1 | ? | 7%
CC(C)(C)c1ccc(-c2nnc(SCC(=O)O)n2N)cc1 | -5% | 3%
COc1cc(NC(=O)c2ccc([N+](=O)[O-])cc2)ccc1NC(=O)C(C)C | 3% | 8%
CCOCCCn1c(SCC(=O)N(C)C2CCS(=O)(=O)C2)nc2ccccc2c1=O (stereo not given) | -13% | -19%
O=C(Nc1cccc(F)c1)c1ccccc1-c1ccccc1 | 4% | 3%
O=C(NNS(=O)(=O)c1ccc(F)cc1)c1cnn(-c2ccccc2)c1C(F)(F)F | -21% | 1%

Arranged by length of the SMILES (highest first): some entries from above.
SMILES | TDP1 cell noCPT | TDP1 block
Cc1ccc(Cn2nnc3c(=O)[nH]c(C4CCN(C(=O)Cc5ccccc5F)CC4)nc32)cc1 | ? | 7%
O=C(NNS(=O)(=O)c1ccc(F)cc1)c1cnn(-c2ccccc2)c1C(F)(F)F | -21% | 1%
COc1cc(NC(=O)c2ccc([N+](=O)[O-])cc2)ccc1NC(=O)C(C)C | 3% | 8%
CCOCCCn1c(SCC(=O)N(C)C2CCS(=O)(=O)C2)nc2ccccc2c1=O (stereo not given) | -13% | -19%
O=C(CCCc1cccs1)Nc1nccs1 | 6% | 2%

More records:
SMILES | TDP1 cell noCPT | TDP1 block
COC(=O)c1ccc(CNC(=O)C2CCC(=O)N(Cc3ccccn3)C2)cc1 (stereo not given) | 7% | 7%
CC(C)CC(NC(=O)C1CCCCC1)C(=O)NC(C)c1ccccc1 (stereo not given) | 4% | ·
Cc1ccc(NC(=O)CSCC(=O)N2CCN(Cc3ccc4c(c3)OCO4)CC2)cc1 | -1% | 5%
NS(=O)(=O)c1cccc(NC(=O)COC(=O)Cn2cc(C(F)(F)F)ccc2=O)c1 | 12% | 0%
CCCN1C(=O)c2cc(C(=O)NCc3ccc(OC)cc3)ccc2C1O (stereo not given) | -9% | 3%
Cc1ccc2cc(S(=O)(=O)NCCCN3CCOCC3)ccc2c1 | ? | 4%
Cc1cccc(OCC(=O)Nc2ncn[nH]2)c1C | -2% | ·
Cc1ccc(NC(=O)C2CCN(S(=O)(=O)c3ccc4c(c3)CCCC(=O)N4)CC2)cc1N(C)C | -21% | 5%&3%
Cc1cc(NS(=O)(=O)c2ccc(NC(=O)c3ccco3)cc2)no1 | -19% | 1%
Cc1ccc(NC(=S)N2CCOCC2)c(C)c1 | -3% | -3%

Copied from the list:
Reading of Cc1ccc(NC(=O)C2CCN(S(=O)(=O)c3ccc4c(c3)CCCC(=O)N4)CC2)cc1N(C)C under TDP1 block: 5%&3%
Reading of CC(C)CC(NC(=O)C1CCCCC1)C(=O)NC(C)c1ccccc1 (stereo not given) under TDP1 cell noCPT: 4%
Reading of Cc1cc(NS(=O)(=O)c2ccc(NC(=O)c3ccco3)cc2)no1 under TDP1 block: 1%

Additional compounds.
SMILES | TDP1 cell noCPT | TDP1 block
Cc1cc(C(=O)NNC(=O)Nc2cccc(C(F)(F)F)c2)no1 | -14% | 3%
O=c1cc(N2CCc3ccccc32)[nH]c(=O)n1Cc1ccc(F)cc1 | -10% | -5%
O=C(CN(C(=O)CCC(=O)Nc1ccccn1)c1ccc(F)cc1)NCc1ccco1 | -8% | 3%[0.0935 µM]
COc1cccc(CN(C)C(=O)c2ccc(OCC(=O)N3CCOCC3)c(OC)c2)c1 | 19% | 2%
C[C@H](NC(=O)C1CC(=O)N(c2ccc3c(c2)OCCO3)C1)C(=O)N1CCCCC1 (stereo not given in full) | 24% | 5%
CN1CCCN(S(=O)(=O)c2ccc(Cl)c(Cl)c2)CC1 | -8% | 3%
COc1ccc([N+](=O)[O-])cc1NC(=O)CCN1CCN(c2ccccc2OC)CC1 | ? | 5%
O=C(N/N=C/c1ccc([N+](=O)[O-])cc1)c1cnccn1 | -8% | 2%
Nc1nc(-c2ccc(S(=O)(=O)N3CCCCC3)cc2)cs1 | ? | 4%
COCCNC(=O)c1cnn2c(C(F)(F)F)cc(-c3ccc4c(c3)OCO4)nc12 | -16% | 3%

Record cards (already shown).
Listed for COc1ccc(N2CCN(C(=O)Nc3ccccc3C)CC2)cc1 : TDP1 cell noCPT: 4%; TDP1 block: -5%
Listed for CN1CCCN(S(=O)(=O)c2ccc(Cl)c(Cl)c2)CC1 : TDP1 cell noCPT: -8%; TDP1 block: 3%
Listed for CC(C)(C)c1ccc(-c2nnc(SCC(=O)O)n2N)cc1 : TDP1 cell noCPT: -5%; TDP1 block: 3%

The list goes on:
SMILES | TDP1 cell noCPT | TDP1 block
COC(=O)c1cc2n(n1)CCN(Cc1ccccc1Cl)C2=O | -22% | 4%
C[C@@H](O)C1NC(=O)[C@H](CCCCN)NC(=O)c2cc([N+](=O)[O-])cc(F)c2NCCCC[C@@H](C(N)=O)NC1=O (stereo not given in full) | 0% | 1%
Cc1[nH]nc(Sc2ccccn2)c1[N+](=O)[O-] | -17% | -3%
CCOC(=O)c1c(NC(=O)CSc2n[nH]c(CNc3ccccc3)n2)sc(C)c1C | -25% | 5%
N#Cc1nc(-c2ccc(F)cc2)oc1NCCCn1ccnc1 | · | 0%
O=C(NCc1ccco1)c1cnn2cccnc12 | -2% | -5%
O=C(C1=C(O)C(=O)N(CCN2CCOCC2)C1c1cccc(Br)c1)c1cccs1 (stereo not given) | 0% | ·
C=CCc1cc(Cl)ccc1OCCOCCNCCOC | ? | -3%
CN(C)c1ccc(/C=N\NC(=S)SCN2C(=O)C3CCC(C)(C2=O)C3(C)C)cc1 (stereo not given) | ? | 11%
CN(C)c1ccc(/C(=N\O)c2ccccc2)cc1 | -17% | 12%
CCCC(=O)C1=C(N(C)c2ccccc2)CC(C)(C)C(C(=O)OC)C1=O (stereo not given) | 1% | 3%
Cc1ccc(NC(=O)CSc2nc3c(cc2C#N)C(=O)CCC3)cc1S(=O)(=O)N(C)C | ? | 5%
COC(=O)N/N=C/c1cc(Cl)c(OCc2ccc(F)cc2)c(OC)c1 | ? | 0%
CCCCOc1ccc(/C=C/C(=O)NCCc2nc3ccccc3[nH]2)cc1 | ? | 7%
COc1ccccc1NC(=O)NCC(c1ccco1)N1CCCCC1 (stereo not given) | 12% | 1%
CC1CCN(C(=O)COC(=O)Cc2c[nH]c3ccccc23)CC1 | -25% | 4%[56.1 µM]
CC(=O)N1CCc2cc(S(=O)(=O)NC(C(=O)NC(C)c3ccccc3)C(C)C)ccc21 (stereo not given) | 6% | 4%
c1ccc(Oc2cccc(NC3=NCCC3)c2)cc1 | -7% | 0%
CN(C)c1cccc2c1c(NC(=O)Nc1ccccc1)nn2C | ? | 6%
Cc1nc2c(Cl)cc(Cl)cc2[nH]1 | -20% | 3%
CCc1ccc2nc3sc(C(=O)Nc4nnc(CC)s4)c(N)c3cc2c1 | 18µM* | -10%
CCOC(=O)c1cc(C)sc1N1C(=O)C2C3C=CC(C3)C2C1=O (stereo not given) | 1% | 5%
Brc1ccc(OCCn2ccnc2)cc1 | -7% | 0%
O=C(COC(=O)c1ccc2c(c1)C(=O)N(Cc1ccncc1)C2=O)Nc1cccc2ccccc12 | ? | 2%
CCOc1ccccc1COC(=O)c1cccc(-n2cnnn2)c1 | -9% | 0%
CC(C)(C)NS(=O)(=O)c1ccc(NC(=O)CS(=O)(=O)Cc2ccccc2)cc1 | -15% | 4%
O=C(COC(=O)Cc1c(F)cccc1Cl)NCCC1=CCCCC1 | ? | 1%
COc1cc(NC(=O)CN2C(=O)C(c3ccccc3)=NC23CCCCCC3)cc(OC)c1 | -37% | 1%
CCc1ccc(C(=O)COC(=O)c2ccco2)cc1 | 14% | 0%
COc1ccc(C)cc1Nc1cc(C)nc2ncnn12 | -3% | 0%
COc1ccccc1NC(=S)N1CCC(c2nc3ccccc3o2)CC1 | ? | 6%
O=C(CCSc1nnc2scc(-c3ccccc3)n12)NCc1ccc2c(c1)OCO2 | -19% | 2%
COc1ccc2cc(C=NS(=O)(=O)c3ccc(C)cc3)n(C)c2c1 | -4% | -5%
Cc1cc(C)nc(SCC(=O)Nn2cnnc2)n1 | 2% | -1%
C=CCn1cc(Cl)c(=O)n(CC=C)c1=O | -7% | -2%
COc1ccc(C2=Nn3c(nnc3-c3ccccc3)SC2)cc1OC | -11% | 5%
COc1cc(CN2CCN(c3cccc(C)c3C)CC2)cc([N+](=O)[O-])c1O | -22% | 5%
COc1ccc(Cl)cc1NC(=O)C(C)N(C)Cc1ccc(C(F)(F)F)cc1 (stereo not given) | -32% | -5%
O=C(COc1cccc(C(F)(F)F)c1)N1CCN(c2ccccc2O)CC1 | ? | -5%
CN1CCN(c2ccc(C(=O)c3ccc(F)cc3)cc2)CC1 | ? | 2%
CC(C(=O)Nc1ccc2c(c1)OCCO2)N1Cc2ccccc2C1=O (stereo not given) | 13% | 0%
Cc1ccc(S(=O)(=O)N2CCC(C(=O)NCCN3CCOCC3)CC2)cc1C | 14% | 0%
O=C(CS(=O)(=O)c1ccccc1)Nc1ccc(Br)cn1 | -21% | 0%
COc1ccc(C(=O)Nc2ccccc2C(=O)O)cc1Cl | ? | 4%
CCOc1ccc(NC(=O)C/C(N)=N/O)cc1 | -15% | 9%
CN(C)c1cc[nH]c(=O)c1C#N | -3% | 6%
O=c1[nH]c(C(F)(F)F)nc2ccc3ccccc3c12 | -19% | 8%
CCn1c(=O)n(CC)c2cc(S(=O)(=O)NCCOc3ccccc3)c(C)cc21 | ? | 5%
Cc1cccc(-n2ncc3c(N4CCc5ccccc54)ncnc32)c1 | · | -1%
NC(=O)c1cc(S(=O)(=O)NCc2ccccc2)cs1 | -3%&-5% | 1%&3%
Continuation.
SMILES | TDP1 cell noCPT | TDP1 block
COc1ccccc1N1CCN(C2CCCN(C(=O)c3cccc(-c4ccco4)c3)C2)CC1 (stereo not given) | ? | 8%
CC1(C)CC(=O)C2=C(C1)N(N1CCOCC1)C(N)=C(C#N)C2c1cccs1 (stereo not given) | -16% | 3%
Cc1ccc(CNC(=O)Cn2c([N+](=O)[O-])cnc2C)cc1 | -4% | -3%
O=C(COC(=O)c1cccnc1Cl)Nc1ccc(N2CCCCC2)cc1 | 1% | 3%[56.1 µM]
Cc1ccc(O)c(NC(=O)COc2cc(C)ccc2C)c1 | -27% | 2%
CSc1nn(-c2ccc(C(=O)OC(C(=O)NC(N)=O)C(C)C)cc2)c(=S)s1 (stereo not given) | ? | 5%
COc1cccc(NC(=O)C2C3C=CC(O3)C2C(=O)NCc2cccnc2)c1 (stereo not given) | -6% | 0%
CNC(=O)CSc1nc2c(c(=O)n(C)c(=O)n2C)n1Cc1ccc(C)cc1 | -9% | -3%
CC(C)Nc1nc(-c2ccncc2)nc(-c2ccc(Cl)cc2)c1C#N | -5% | 2%
Cc1ccc(NC(=O)CSc2nnc(-c3cccnc3)n2-c2ccc(C)cc2)cc1 | ? | 3%
C#CCNC(=O)C1=C[C@@H](C2CC2)C[C@@H](OCc2ccc(CO)cc2)O1 | -21% | 0%
Cc1noc(C)c1S(=O)(=O)N1CCCC1C(=O)O (stereo not given) | -1% | 3%[0.0935 µM]
CCN1C(=O)c2cccc3c(NC(=O)c4ccc(S(=O)(=O)N5CCOCC5)cc4)ccc1c23 | ? | 2%
C=CCSc1nnc(-c2cc(Br)ccc2N)c(=O)[nH]1 | -25% | 5%
O=C(NCCCN1CCOCC1)c1ccc(CS(=O)(=O)c2cccc(C(F)(F)F)c2)o1 | -10% | 6%
COc1ccc(N2CCN(c3nc4ccccn4c(=O)c3C=O)CC2)cc1 | -29% | 2%
CCN(CC)S(=O)(=O)c1ccc(NC(=S)NC(=O)C(C)C)cc1 | ? | 3%
CCc1ccc(NC(=O)[C@H](Cc2ccccc2)N2Cc3ccccc3C2=O)cc1 | ? | 5%
COC(=O)CNC(=O)C12CC3(C)CC(C)(CC(C)(C3)C1)C2 | ? | 0%
CSc1nc2ccccc2c(=O)n1Cc1ccc(F)cc1 | ? | 3%
Cc1ccc(S(=O)(=O)NC(CC(=O)O)c2ccco2)cc1 (stereo not given) | -6% | 2%
C=CCNC(=S)Nc1cc(S(=O)(=O)N2CCOCC2)ccc1-n1cncn1 | ? | 1%
